VACV E9 pol inh – inhibitors of vaccinia virus processive DNA synthesis (E9 polymerase). in vitro processive DNA synthesis, absorbance read-out; active compounds read low; some inactives read as strong as hits. normalized absorbance, % (concentration not given with the values). hit rate 0.94% among 46,000. AID 493162;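 active = replicate mean up to 90% and picked by the depositor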;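 note: 100% = median of the test wells of a plate; 100 nL library stock went into each well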
Starred values were filed as active, the others as inactive.

entry	compound	VACV E9 pol inh
1	O=C(NCc1ccncc1)c1cc(-c2ccco2)nc2ccccc12	115.2
2	COc1ccc(S(=O)(=O)N(C)CCO)cc1-c1nnc2c3ccccc3c(C)nn12	92.1
3	Fc1ccc(CSc2nc3ncccc3[nH]2)c(Cl)c1	100.1
4	COC(=O)c1c(NC(=O)CSc2nc(-c3ccco3)cc(C(F)(F)F)n2)sc2c1CCCC2	101.7
5	CCCc1cc(C(=O)OC)c(NC(=O)CCCC(=O)O)s1	100.5
6	Cc1cc2c(cc1C)NC(CC(=O)Nc1ccccc1C)C(=O)N2 (stereo not given)	97.9
7	CCOC(=O)c1cnn(-c2ccc(Cl)c(Cl)c2)c1N	99.5
8	CCN(CC)/N=N/c1[nH]nc2nc(C)cc(C)c12	99.2
9	N#C/C(=C\Nc1ccc(Br)cc1)c1nc(-c2ccccc2)cs1	98.9
10	O=C(CCC1Nc2c3ccccc3nc(=S)n2C1=O)N1CCN(c2ccccc2)CC1 (stereo not given)	97.8
11	CCc1cccc2c(CCNC(=O)COc3ccc(F)cc3F)c(C)[nH]c12	94.3
12	CCNc1sc(S(=O)(=O)CC)nc1S(=O)(=O)c1ccc(C)cc1	104.8
13	CC(C)(C)C(=O)CSc1ncnc2nc[nH]c12	100.7
14	CN(C)C(CNC(=O)Nc1cccc(Cl)c1)c1cccnc1 (stereo not given)	96.8
15	O=C(CCc1c[nH]c2ccccc12)OCc1c(Cl)cccc1Cl	113.9
16	Cc1ccc2c(c1)c1nc3ccccc3nc1n2C(C)C	100.1
17	O=C(c1ccc(S(=O)(=O)N2CCOCC2)cc1)N1CCN=C1SCc1c(F)cccc1Cl	103.1
18	O=C(COc1ccc(Cl)cc1Cl)NCCO	99.9
19	Cc1nn(-c2ccc(F)cc2)c(Cl)c1C=Nc1cccc(C#N)c1	100.1
20	O=C(CCc1nc2ccccc2[nH]1)NCc1ccc(F)cc1Cl	103.5
21	Cn1c(NCc2ccccc2)nc2ccccc21	101.1
22	Cc1cc(OCC(O)CNC(C)(C)C)ccc1C(C)C (stereo not given)	103.0
23	COc1ccc(OC)c(S(=O)(=O)NCCc2sc(-c3ccc(OC)c(OC)c3)nc2C)c1	99.7
24	O=C(O)C1C2C=CC(C2)C1C(=O)Nc1ccc(Cl)cc1 (stereo not given)	96.2
25	O=C(/C=C/c1ccco1)N(Cc1cccs1)C1CCS(=O)(=O)C1 (stereo not given)	99.9
26	O=C(CC(=O)Nc1ccccc1OC(F)(F)F)Nc1ccccc1OC(F)(F)F	99.7
27	COc1ccc(OC)c(NC(=O)c2cccs2)c1	101.0
28	c1ccc2[nH]c(C3CCNCC3)nc2c1	103.9
29	COc1cc(/C=C\C(=O)NCc2ccc3[nH]c4c(c3c2)CCCC4)cc(OC)c1OC	103.4
30	C[C@@]1(CO)[C@H](O)CC[C@@]2(C)[C@H]1CC[C@H]1C[C@@H]3C[C@@]12CC[C@]3(O)CO	15.4*
31	Cc1n[nH]c(C)c1Nc1cnn(C23CC4CC(CC(C4)C2)C3)c(=O)c1Cl	101.3
32	CC(c1ccccc1)C1OCC(C[N+]2(C)CCCCC2)O1 (stereo not given)	99.9
33	CC(CN1CCCC1)OC(=O)c1cc(C(C)(C)C)cc(C(C)(C)C)c1 (stereo not given)	100.0
34	CSc1cccc(NC(=O)C2CCCN2S(=O)(=O)c2cccc3cccnc23)c1 (stereo not given)	102.2
35	O=c1cc(O)n(-c2ccccc2)c(=S)n1-n1c(=O)cc(O)n(-c2ccccc2)c1=S	99.4
36	Cc1cccc(Nc2nc(C)cc(C)c2C#N)c1	98.1
37	CC(C)[C@H](NC(=O)CNC(=O)OC(C)(C)C)C(=O)N[C@H](C=O)C(C)C	98.9
38	O=C(CCC(=O)n1ncc2ccccc21)NC1CCCCC1	96.4
39	Cc1ccc(NC(=O)C2(NS(=O)(=O)c3cccc4cccnc34)CCCCC2)cc1	94.7
40	Cc1ccc(-c2nn(CC(=O)N(C)C)c(=O)c3ccccc23)cc1	100.1
41	CC1CCC(C(C)C)C(NCc2ccccc2)C1 (stereo not given)	100.6
42	CN(Cc1ccccc1)S(=O)(=O)c1ccc(NC(=O)/C=C/c2ccco2)cc1	103.3
43	CCOC(=O)c1ccc(N2Cc3ccccc3C2=N)cc1	107.5
44	O=C(CCCn1nc(-c2ccccc2)c2cc(Cl)ccc21)N1CCOCC1	81.5
45	C=CCNC(=O)C1CC(c2cc(OC)ccc2OC)=NO1 (stereo not given)	95.3
46	O=C1CSC(=S)N1CCc1ccc(Cl)cc1	99.3
47	CC1(C)CC(=O)C2=C(C1)N=C1c3ccccc3C(=O)C1C2c1cccc(Br)c1 (stereo not given)	100.6
48	CC(=O)OCC1C(COC(C)=O)C1(Cl)Cl (stereo not given)	97.3
49	CC1=C(c2ccc(C)cc2)S(=O)(=O)N(CC(=O)N2CCN(c3ccccn3)CC2)C1=O	107.1
50	O=C(NC=Nc1cccnc1)C1COc2ccccc2O1 (stereo not given)	100.2
51	CCn1c(CNC(C)=O)nc2ccccc21	101.0
52	C1CCC(N2CCN(C3CCCC3)CC2)CC1	96.5
53	CN(C(=O)COC(=O)c1cccnc1Cl)C1CCCCC1	101.1
54	COc1ccc(NC(=O)c2ccc(C)c(I)c2)cc1OC	100.2
55	CCOC(=O)c1c(CN2CCCC2)n(C)c2cc(Br)c(OC)cc12	99.1
56	Cn1cnnc1SCC(=O)N1CCCCC1	100.8
57	C1=C(N2CCOCC2)Cc2ccccc21	94.1
58	CCCC(=O)Nc1sc2c(c1C#N)CC(C)(C)NC2(C)C	105.0
59	CC(C)c1ccc(NC(=O)CN2C(=O)c3ccccc3Sc3ccc(C(=O)N4CCCC4)cc32)cc1	95.2
60	CCOC(=O)N1CCc2c(sc3c2C(=O)NC(c2ccccc2)N3)C1 (stereo not given)	103.3

Four entries from above, as labelled records:
55. CCOC(=O)c1c(CN2CCCC2)n(C)c2cc(Br)c(OC)cc12
  VACV E9 pol inh = 99.1
56. Cn1cnnc1SCC(=O)N1CCCCC1
  VACV E9 pol inh = 100.8
57. C1=C(N2CCOCC2)Cc2ccccc21
  VACV E9 pol inh = 94.1
58. CCCC(=O)Nc1sc2c(c1C#N)CC(C)(C)NC2(C)C
  VACV E9 pol inh = 105.0

Later entries:
entry	compound	VACV E9 pol inh
61	O=C(CCc1nc(-c2ccccc2)no1)Nc1ccccc1	103.6
62	COc1ccc(-n2nc(C(=O)NCC(=O)Nc3cccc(OC)c3)c3ccccc3c2=O)cc1	100.6
63	CNC(=O)C1CCN(c2nc3ccccc3n3cccc23)CC1	86.5
64	Cc1ccc(C2=C/C(=C/c3ccc(-c4cccc(C(=O)O)c4)o3)C(=O)O2)cc1	99.7
65	Cc1ccc2c(c1)C(=O)CC(c1cc(Br)cc3c1OCOC3)O2 (stereo not given)	101.6
66	O=C(CSCc1ccco1)Nc1nccs1	100.4
67	O=S(=O)(c1ccc2[nH]c3c(c2c1)CCCC3)N1CCCc2ccccc21	102.0
68	NCCOc1ccc(Cl)cc1	98.3
69	Brc1ccc(-c2cnc3n2CCCC3)cc1	99.2
70	CCOC(=O)NC(=S)Nc1ccc(C(C)(C)C)cc1	98.2
71	O=C1NC(=O)C(=Cc2cn(CCOc3ccc4c(c3)OCO4)c3ccccc23)C(=O)N1	100.1
72	Cn1c(=O)cc(SCC(=O)NCCN2CCOCC2)c2ccc(Cl)cc21	93.6
73	CC(=O)NC1=NC(=O)/C(=C/c2ccc(-c3ccc4c(c3)COC4=O)o2)S1	100.3
74	O=C1c2ccccc2C(=O)N1c1nccs1	100.1
75	Cc1cc(S(=O)(=O)NCc2c(N(C)C)cccc2N(C)C)c(Cl)cc1Cl	102.4

Among those listed so far, these have a CF3 group.
entry	compound	VACV E9 pol inh
4	COC(=O)c1c(NC(=O)CSc2nc(-c3ccco3)cc(C(F)(F)F)n2)sc2c1CCCC2	101.7
26	O=C(CC(=O)Nc1ccccc1OC(F)(F)F)Nc1ccccc1OC(F)(F)F	99.7

More results follow:
entry	compound	VACV E9 pol inh
76	O=C(CC1OC(=O)c2ccccc21)c1ccc(-n2ccnc2)cc1 (stereo not given)	88.3
77	O=C(O)CCCc1cc2cc(Br)ccc2o1	97.7
78	CC1(C)CN=C(NCc2cccnc2)S1	91.6
79	N#CC(=Nc1cccnc1)C1=C(O)c2ccccc2C1=O	99.1
80	Cc1cc(C(F)(F)F)n(-c2nc(CCl)cs2)n1	91.0
81	Cc1ccccc1C(=O)c1c[nH]c(C(=O)NCc2ccccc2)c1	109.9
82	COc1cc2c(cc1NS(=O)(=O)c1ccc(N3CCCC3=O)cc1)oc1ccccc12	103.8
83	Cc1cccc(COc2ccc3c(C)cc(=O)oc3c2)c1	100.0
84	NC(=O)CCSc1nnc(SCC(=O)c2ccccc2)s1	99.7
85	COc1ccc(/C=C2\SC(=S)N(CC(=O)Nc3ccccc3)C2=O)cc1	100.1
86	O=C(N/C(=C\c1ccccc1Cl)C(=O)N1CCOCC1)c1ccccc1	107.2
87	Cc1cc(C)nc(/N=C(/N)N(C)C2CCCCC2)n1	101.2
88	Cc1nc(NC(=O)CSc2ccccc2)sc1-c1ccccc1	105.5
89	Cc1cc2cc(CNC(=O)c3cc4ccccc4oc3=O)ccc2n1C	97.5
90	CCOc1cc(/C=C2/C(=O)ON=C2C)ccc1OC(=O)c1cccs1	100.9
91	CC(N)(C(=O)O)c1cccc(OCc2cccc(Cl)c2)c1 (stereo not given)	102.7
92	Cc1cc(C)n(C(=O)c2ccc(NC(=O)C3CC3)cc2)n1	120.1
93	O=C1N(CN(CCc2ccccc2)Cc2ccccc2)c2ccccc2C12OCCCO2	102.7
94	O=C(NC1CCSC1=O)c1ccccc1 (stereo not given)	103.4
95	Cc1ccccc1C(=O)Nc1c(C)[nH]c(=O)[nH]c1=O	93.9
96	Cc1ccccc1NC(=O)c1csc2c1CCCC2	99.6
97	O=S1(=O)CCN(Cc2ccc(OC(F)(F)F)cc2)CC1	107.6
98	O=S(=O)(c1ccc(Br)cc1)N1CCNCC1	98.6
99	Nc1ccc(S(=O)(=O)Nc2nccs2)cc1	99.5
100	COC(=O)/C=C1\SC(=NC(=O)c2ccc(OC)cc2)NC1=O	100.4
101	O=C(c1cccc(S(=O)(=O)N2CCCCC2)c1)N1CCN(c2ccccc2)CC1	97.1
102	Cc1cc2nc(SCc3ccc(F)cc3)[nH]c2cc1C	100.3
103	N#Cc1ccc(NC(=O)/C=C/c2ccccc2)cc1	99.3
104	CN1CCCC(OC(=O)c2cc(F)c(F)c(F)c2F)C1 (stereo not given)	102.9
105	COC[C@H]1OC(=O)c2coc3c2[C@@]1(C)C1=C(C3=O)C2CCC(=O)[C@@]2(C)C[C@H]1OC(C)=O (stereo not given in full)	99.7
106	Cc1ccc(S(=O)(=O)N(c2cc(C)nn2C)S(=O)(=O)c2ccc(C)cc2)cc1	93.1
107	Cc1c(C(=O)NCc2ccccc2)sc2nc3n(c(=O)c12)CCCC3	106.1
108	CC(=O)Oc1ccc(C(=O)Nc2ccccc2NC(=O)c2ccc(OC(C)=O)cc2)cc1	99.9
109	COc1cc(OC)c(OC)cc1CN1CCN(Cc2ccc(F)cc2)CC1	100.5
110	C(=Nc1ccccc1)c1nc(-c2ccccc2)n2ccccc12	100.8
111	CC1(C)CC(N2COc3c(cc(Cl)c4cccnc34)C2)CC(C)(C)N1	91.9
112	Cc1ccc(C)c(S(=O)(=O)NCC(=O)Nc2nsc(-c3ccccc3)n2)c1	101.3
113	CC(NC(=O)CC(c1ccccc1)c1ccccc1)c1ccccc1 (stereo not given)	100.2
114	CC(C)N(Cc1ccccc1)S(=O)(=O)c1ccc(-n2cccn2)cc1	88.5
115	COc1cc(C)c(C(C)C)cc1S(=O)(=O)N1CCN(c2cccc(Cl)c2)CC1	99.7
116	O=C(CSc1ncnc2ccccc12)NC1CCCCC1	100.5
117	CSc1n[nH]c(NS(=O)(=O)c2ccc(Cl)cc2)c1-c1ccccn1	92.1
118	COC(=O)C(C)NC(=O)c1cccnc1Cl (stereo not given)	102.3
119	O=C1C2=C(Nc3ccccc3SC2c2ccccc2F)c2ccccc21 (stereo not given)	97.2
120	Cc1cc(C)nc(/N=C(/NC(=O)Cc2ccccc2)N2CCC(C(N)=O)CC2)n1	100.2
121	O=C(O)C1CCCN1S(=O)(=O)c1ccccc1 (stereo not given)	94.6
122	CSc1nc(-c2ccccc2)cn1-c1ccc(NC(C)=O)cc1	100.8
123	O=S(=O)(Nc1ccccc1O)c1ccccc1	90.5
124	O=C1NC(c2cccc(Oc3ccccc3)c2)Oc2ccccc21 (stereo not given)	74.5
125	COc1ccc(C(=O)c2c(NC(C)=O)sc3c2CCN(C(=O)OC(C)(C)C)C3)cc1	105.4
126	CC1(C)CC(=O)C=C(NN2CCOCC2)C1	93.3
127	COc1cccc2sc(NC(C)=O)nc12	95.6
128	Cc1cccc(NC(=S)Nc2c(C(C)C)cccc2C(C)C)c1	102.1
129	COc1ccc2[nH]c3c(=O)n(CCCCC(=O)Nc4ccccc4)c(=S)[nH]c3c2c1	83.9
130	O=C(Cc1cccc2ccccc12)NN1C(=O)C2C3C=CC(C3)C2C1=O (stereo not given)	98.4
131	O=C(C(NS(=O)(=O)c1ccc(Br)s1)c1ccccc1)N1CCOCC1 (stereo not given)	96.0
132	COC(=O)c1cccc(C(=O)OC)n1	99.1
133	CCN(CC)C(=O)Cn1cc(C#N)c2ccccc21	78.7
134	COC(=O)Nc1ccc(Br)cn1	100.4
135	Cc1ccc(C)n1-c1cccc(C(F)(F)F)c1	99.4

Next section
entry	compound	VACV E9 pol inh
136	COC(=O)c1sccc1Oc1ccc(C(F)(F)F)cc1NC(=O)c1ccc(Cl)cc1	100.8
137	CCN1/C(=C2/SC(=S)N(N)C2=O)C=Cc2cc(C)ccc21	99.9
138	COc1ccc(CN(C(=O)CCN2C(=O)c3ccccc3S2(=O)=O)c2ccccc2O)cc1	96.0
139	O=S(=O)(Nc1ccccc1CO)c1ccc(F)cc1	102.2
140	Cc1nn(-c2ccccc2)c2c1C(C(F)(F)F)(C(F)(F)F)C(C#N)=C(N)O2	92.5

Screening results as filed in PubChem BioAssay.

Not all compounds are listed, so the mix of outcomes need not match the whole.
